VDR inh: Inhibitors of the vitamin D receptor (VDR): qHTS; Vitamin D3 receptor (Homo sapiens), P11473; VDR-SRC2-3 peptide fluorescence polarization, 2 h; Potency, µM, without a hit: max response, negative = inhibition, actives largely listed as inhibitors; hit rate 0.93% among 400,000; active = well fitted inhibition curve with a large enough effect; inconclusive = small, poorly fitted or top-dose-only effect, or another doubt; inactive = no such curve, though single readings can be large or run the other way; also: series mostly up to about 120 µM
Target sequence (P11473 whole entry, looked up): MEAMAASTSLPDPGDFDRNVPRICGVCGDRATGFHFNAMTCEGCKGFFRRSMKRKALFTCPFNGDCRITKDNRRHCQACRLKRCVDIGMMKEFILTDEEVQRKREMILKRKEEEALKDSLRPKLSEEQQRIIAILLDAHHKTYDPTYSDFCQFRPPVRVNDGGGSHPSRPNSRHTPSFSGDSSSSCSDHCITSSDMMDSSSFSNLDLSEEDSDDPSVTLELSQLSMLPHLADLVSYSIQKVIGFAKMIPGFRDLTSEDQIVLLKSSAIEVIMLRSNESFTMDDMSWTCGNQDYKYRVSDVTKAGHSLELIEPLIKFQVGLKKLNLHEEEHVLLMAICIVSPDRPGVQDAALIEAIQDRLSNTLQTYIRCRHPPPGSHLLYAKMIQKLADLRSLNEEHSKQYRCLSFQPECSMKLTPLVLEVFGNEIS
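Measured by FP: displacement of SRC2-3 coactivator peptide from VDR by library compounds, following a two-hour ambient incubation.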
An asterisk follows results filed as active; ? = inconclusive; & = joins results of further samples. % is scaled to controls: 0 for no effect and ±100 for the full control effect; potency is read from the fitted curve at half-maximal effect. The list is partial; the hit share may differ from the screen's.

cpd | smiles | VDR inh
1 | CCOc1cc(/C=C2\SC(N3CCCC(C)C3)=NC2=O)ccc1O (centres undefined) | -3%
2 | CCOC(=O)N1CCN(C(=O)Nc2ccc(Cl)cc2Cl)CC1 | -7%
3 | CCCCCCN(CCCCCC)C(=O)Cc1c(-c2ccc(F)cc2)[nH]c2ccccc12 | 1%&-1%
4 | CN1CCN(S(=O)(=O)c2cccc(C(=O)NC3CCCC3)c2)CC1 | 2%
5 | c1ccc2oc(-c3csc(N4CCOCC4)n3)cc2c1 | ?
6 | CC(=O)NC1C(=O)N=C(SC(C)C(=O)Nc2cccc(Cl)c2)NC1=O (centres undefined) | 11%
7 | Cc1cccc(-c2noc(-c3ccc(NC4CCCC4)c([N+](=O)[O-])c3)n2)c1 | 26%
8 | CC(CC(=O)NCc1ccco1)S(=O)(=O)c1ccc2c(c1)CCN2C(=O)C1CC1 (centres undefined) | -8%
9 | CC(C)(C)c1ccc(OC(=O)N2CCOCC2)cc1 | 1%
10 | O=c1c(-c2ccc(F)cc2)nc2cnc(N3CCOCC3)nc2n1CCc1ccccc1 | -2%
11 | CCOC(=O)N1CCN(CC(=O)Nc2ccccc2C(=O)Nc2ccccc2)CC1 | -10%
12 | COc1ccc(S(=O)(=O)NCCC(C)C)cc1C | 5%
13 | Cc1cc2oc(C(=O)N(Cc3ccc(N(C)C)cc3)CC3CCCO3)c(C)c2cc1C (centres undefined) | -4%&8%
14 | CCN(CC)C(=O)CSc1nc2ccccc2n1CC(=O)N1CCN(c2ccccc2OC)CC1 | 4%
15 | CC(NS(=O)(=O)c1ccc(Br)cc1)C(c1cccs1)N1CCN(C)CC1 (centres undefined) | -20%
16 | CCN1CCN(c2oc(-c3ccc(OC)cc3)nc2C#N)CC1 | 14%
17 | O=C(COc1ccc(Cl)cc1Cl)NN1C(=O)C2C3C=CC([C@@H]2C1=O)C31CC1 (some centres undefined) | 23%
18 | CCOC(=O)C1=C(C)NC(C)=C(C(=O)OCC)C1c1cccc(C)n1 | 14%
19 | C=C1c2cccc(OC)c2O[C@H](C(=O)OCC)[C@@H]1CCC(C)C | -25%
20 | Cc1nn(C)c(C)c1NS(=O)(=O)c1cccc(Br)c1 | -12%
21 | Cc1cc(NC(=O)CCC(=O)N(c2ccccc2)C(C(=O)NC2CCCC2)c2ccc(F)cc2)no1 (centres undefined) | -20%
22 | O=C(Cn1c(CO)nc2ccccc21)Nc1cc(C(F)(F)F)ccc1N1CCOCC1 | -1%
23 | CN(C)CC[C@@](O)(c1ccccc1)c1ccccc1Cl | 2%
24 | Cc1ccc(CCNC(=O)c2cc3c(s2)-c2c(C)cccc2OC3)cc1 | 7%

Reformatted: 4 of the compounds above
entry	VDR inh	Structure
20	-12%	Cc1nn(C)c(C)c1NS(=O)(=O)c1cccc(Br)c1
21	-20%	Cc1cc(NC(=O)CCC(=O)N(c2ccccc2)C(C(=O)NC2CCCC2)c2ccc(F)cc2)no1 (centres undefined)
22	-1%	O=C(Cn1c(CO)nc2ccccc21)Nc1cc(C(F)(F)F)ccc1N1CCOCC1
23	2%	CN(C)CC[C@@](O)(c1ccccc1)c1ccccc1Cl

Carrying on.
cpd | smiles | VDR inh
25 | COC(=O)Cc1coc2cc(OC)ccc12 | -18%
26 | C=Cn1cc[n+](CC(=O)c2ccc(Br)s2)c1 | 4%
27 | N#Cc1cc(C#N)c(N2CCN(c3ccccn3)CC2)nc1N | 2%
28 | CCc1ccc(C(=O)C(C)CN2CCCCC2)cc1 (centres undefined) | -2%
29 | c1cncc(C(c2nnnn2C2CCCC2)N2CCN(Cc3ccc4c(c3)OCO4)CC2)c1 (centres undefined) | -5%
30 | CCc1ccc(NC(=O)N2CCN(C(=O)C3CCCO3)CC2)cc1 (centres undefined) | -22%
31 | COc1ccccc1CCNC(=O)c1nccnc1C(=O)O | -11%
32 | CN(C)C1CCc2[nH]c3ccc(NC(=O)c4ccc(F)cc4)cc3c2C1 (centres undefined) | 6%
33 | Cc1ccc2nc(SCCCCOc3ccccc3)[nH]c2c1 | 13%
34 | Cn1c(=O)c2c(nc(NCc3ccco3)n2Cc2ccccc2Cl)n(C)c1=O | -7%
35 | CCOC(=O)Cc1[nH]nc2c1C(c1cc(OC)ccc1OC)C(C#N)=C(N)O2 (centres undefined) | 0%
36 | Cc1ccc(C(=O)O)cc1NC(=S)NC(=O)c1ccc([N+](=O)[O-])c(C)c1 | 2%
37 | Cc1nonc1C(=O)N/N=C/c1ccc(O)cc1 | -6%
38 | COc1ccc(NC(=O)C2CCN(S(=O)(=O)c3cccc4nonc34)CC2)c(OC)c1 | 0%
39 | CC(C)c1cccc(C(C)C)c1NC(=O)CN1C(=O)NC2(CCCCCCC2)C1=O | -1%
40 | COCCOC(=O)C1=C(C)NC(=O)NC1c1cccc(F)c1 (centres undefined) | 7%
41 | CN(CCCNC(=O)c1cc2c(=O)n(C)c3ccccc3c2s1)Cc1ccccc1 | -4%
42 | COc1ccc(-c2cc(C(=O)N3CCN(c4ccccc4)CC3)c3ccccc3n2)cc1OC | 10%
43 | O=S1(=O)C2CC3C=CC2(CN1Cc1cccc(F)c1)O3 (centres undefined) | 6%
44 | COc1ccc(NC(=O)c2cc(C)no2)cc1OC | -4%
45 | O=C(COc1ccc2c3c(c(=O)oc2c1)CCCC3)NC(Cc1ccc(Cl)cc1)C(=O)O (centres undefined) | -25%
46 | Cc1ccc(N2CCN(S(=O)(=O)c3nnc(NC(=O)c4ccco4)s3)CC2)cc1 | -13%
47 | COc1ccc(-c2nn(-c3ccccc3)cc2C(=O)N(C)CC(=O)Nc2cccc(F)c2)cc1 | -5%
48 | COc1ccc(Cn2c(SCC#N)nc3ccc(N4CCOCC4)cc3c2=O)cc1 | 7%
49 | O=C(NCCCN1CCN(c2ccccc2)CC1)c1cc2c(s1)-c1ccccc1OC2 | -27%
50 | Cc1ccc(/C=N/N(Cc2ccccc2)c2ccccc2)o1 | -19%
51 | COc1ccc(C(=O)NCCNc2ccccc2[N+](=O)[O-])cc1 | -3%
52 | Cc1ccc(N2CCN(C(=S)c3ccc(N(C)C)cc3)CC2)cc1 | ?
53 | Cc1c(Cl)cccc1Nc1nn2c(=O)c3ccc(C(=O)NCCC4=CCCCC4)cc3nc2s1 | 6%
54 | COc1ccc(OC)c(-n2c(=S)[nH]c3cc(C(=O)N(C)Cc4ccccc4)ccc3c2=O)c1 | 12%
55 | Cc1cc(NC(=O)CCSc2ccccc2)ccc1Br | -8%
56 | O=C(NCCN1CCOCC1)c1cnn2c1NC(c1cccs1)CC2C(F)(F)F (centres undefined) | 5%
57 | O=C1CCCC(=NNC(=O)c2cc3ccccc3cc2O)C1 | -20%
58 | Cn1nnnc1Sc1c(Cl)cccc1[N+](=O)[O-] | 6%
59 | C[C@@]12C(=O)Nc3ccc(F)cc3C(=O)N1[C@H]1c3ccccc3OC[C@@H]1[C@@H]2c1ccccc1 | -18%
60 | O=C(CN1CCC(NC(=O)Nc2ccccc2)CC1)Nc1ccccc1F | 0%
61 | O=C(COC(=O)c1c[nH]c(=O)[nH]c1=O)Nc1ccccc1F | 2%
62 | COc1ccccc1Nc1nc2ccccc2n1C | -12%
63 | Clc1ccc(-c2nnc(SCc3ccon3)o2)c(Cl)c1 | 3%
64 | Cc1cnc(CNc2cc(-c3ccc4c(c3)OCO4)ncn2)cn1 | -14%
65 | O=C(CCn1c(=O)c2sccc2n(CC(=O)Nc2ccccc2)c1=O)NCc1ccccc1Cl | -19%
66 | CCC(CC)CN1CCC(CN2C(=O)C(=O)NC[C@@H]2[C@@H](C)CC)CC1 | -5%
67 | Cn1c(/C=C/c2ccc(Cl)cc2)nc2ccccc2c1=O | ?
68 | CC(=O)Nc1ccc(SCC(c2ccccc2)N2CCN(CC(C)C)CCC2=O)cc1 (centres undefined) | ?
69 | COCCNC(=S)NC(=O)CC12CC3CC(CC(C3)C1)C2 | 13%
70 | O=C(COc1ccc([N+](=O)[O-])cc1)NCC1(N2CCOCC2)CCCCC1 | 17%
71 | O=C1CSC(c2ccccc2)N1CC12CC3CC(CC(O)(C3)C1)C2 (centres undefined) | 15%
72 | Cc1ccc(CCNS(=O)(=O)c2ccc3c(c2)C(C)(C)C(=O)N3C)cc1 | 1%
73 | COc1cc(SC#N)ccc1N=Cc1c(C)[nH]n(-c2ccc(C)c(C)c2)c1=O | ?
74 | O=C(N/N=C/c1ccccn1)c1ccc(S(=O)(=O)N2CCCCCC2)cc1 | 0%
75 | CCOc1ccc2ccccc2c1CNc1nnnn1C | 4%
76 | COc1nc(NCc2cccnc2)nc(NC2CCCCC2)n1 | -4%
77 | CC(O)c1cc2c(s1)c1cnn(Cc3ccccc3F)c(=O)c1n2C (centres undefined) | 9%
78 | CC(=O)N1CCN(c2cc(N3CCCC3)c(F)cc2[N+](=O)[O-])CC1 | 18%
79 | CC(C)CCNC(=O)Nc1cc(C(=O)NCc2cccc(F)c2)ccc1N1CCCC1 | 3%
80 | CCC(C)N1C(=O)CCC1C(=O)N1CCN(c2ccc(F)cc2)CC1 (centres undefined) | 7%
81 | CCCOc1ccc(C(F)(F)F)cc1NC(=O)CCc1c(C)noc1C | -2%
82 | COc1ccc(-n2c(/C=C/c3cc(OC)c(OC)cc3OC)nc3cc4ccccc4cc3c2=O)cc1Cl | 18%
83 | O=C(CCC(=O)OCC(=O)c1ccc(Cl)cc1)Nc1ccc(Oc2ccccc2)cc1 | -14%
84 | CN(CCOc1ccccc1)CC(=O)Nc1ccc(S(=O)(=O)N2CCCC2)cc1 | -15%

New compounds follow:
cpd | smiles | VDR inh
85 | O=C(Oc1cc(Cl)ccc1Cl)C1=CC=CN2CCS(=O)(=O)N=C12 | -15%
86 | Cc1[nH]c2ccc(-c3nnc(SCC(=O)c4ccc(F)cc4)o3)cc2c1C | -5%
87 | CCC[C@H](CN[C@@H](CNC)[C@H](C)O)NCCc1ccc(OC)cc1 | 1%
88 | CC1=C(c2ccc(C)cc2)S(=O)(=O)NC1=NCCCN1CCN(c2ccc(F)cc2)CC1 | 7%
89 | CCn1c(SCc2ccccc2F)nnc1-c1ccncc1 | 9%
90 | COc1cccc(NC(=O)C(Cc2ccccc2)NC(=O)C2CCC(C)CC2)c1 (centres undefined) | -10%
91 | O=C(COc1ccc(Cl)cc1)NCc1ccccc1 | -3%
92 | CN(C)C(=O)COC(=O)c1cc(Cl)cc(Cl)c1N | 5%
93 | O=[N+]([O-])c1cc(Cl)ccc1Sc1cccc2cccnc12 | 1%
94 | CC1=C(C(=O)N(C)C)C(c2ccc(Cl)c(Cl)c2)NC(=O)N1 (centres undefined) | -8%
95 | CCOc1ccc(NC(=O)c2oc3ccccc3c2NC(=O)c2ccc(OC)cc2OC)cc1 | 0%
96 | CCOc1ccc(C2=C/C(=C/c3cccnc3)C(=O)O2)cc1 | 3%

A different layout for some results above:
#86 Cc1[nH]c2ccc(-c3nnc(SCC(=O)c4ccc(F)cc4)o3)cc2c1C
  VDR inh: -5%

#92 CN(C)C(=O)COC(=O)c1cc(Cl)cc(Cl)c1N
  VDR inh: 5%

The listing continues.
cpd | smiles | VDR inh
97 | Cc1[nH]c2ccccc2c1-c1csc(NC(=O)CSCCO)n1 | -10%
98 | COc1ccc(N(C(C)=O)c2nc3ccccc3[nH]2)cc1 | -13%
99 | O=C(NC(N1CCOCC1)C(Cl)(Cl)Cl)c1ccco1 (centres undefined) | -8%
100 | CCOC(=O)Cc1nnc(NC(=O)C(CC)Sc2nc(C)cc(=O)[nH]2)s1 (centres undefined) | ?
101 | Cn1c2c(c(=O)n(C)c1=O)C(NC(=O)c1cccs1)(C(F)(F)F)C(=O)N2 (centres undefined) | 1%
102 | COc1ccc2oc(=O)c(C(=O)NCCc3c(C)[nH]c4ccc(Br)cc34)cc2c1 | -2%
103 | COc1ccc(C(CNC(=O)c2ccc(-c3nc4ccccc4s3)o2)N2CCCC2)cc1 (centres undefined) | -19%
104 | COc1ccc(Cl)cc1NC(=O)C(C)n1nnc2sc3c(c2c1=O)CCCC3 (centres undefined) | 16%
105 | CC(=O)c1ccc(NC(=O)c2ccc3c(c2)N(Cc2cccc(Cl)c2)C(=O)c2ccccc2S3=O)cc1 (centres undefined) | -3%
106 | Cc1ccc(N(CC(=O)Nc2c(C)cccc2C)S(C)(=O)=O)cc1 | -11%
107 | CN1OC[C@@H]2CN(Cc3ccccc3)[C@H](c3cccc(N4CCOCC4)c3)C[C@@H]21 | -4%
108 | CCN(CC)C(=O)C[n+]1cccc(/C=N/O)c1 | -5%
109 | COc1cc(C(=O)OCC(=O)Nc2ccc(F)cc2F)cc(OC)c1OC | 4%
110 | CCSc1ccc(C(=O)Nc2ccc(-c3nc4ccc(C)cc4s3)cc2)cc1 | -9%
111 | CCN(C(=O)CSc1nnc(SC)s1)c1c(N)n(Cc2ccccc2)c(=O)[nH]c1=O | 17%
112 | COc1ccc(-c2cn3c(n2)sc2cc(C(=O)Nc4ccccc4F)ccc23)cc1 | -1%
113 | Cc1ccccc1C(=O)Nc1cccc(OCc2cc(=O)n3c(C)csc3n2)c1 | -19%
114 | O=C(NCc1ccccc1)C1=C[C@H](c2ccc(C(F)(F)F)cc2)C[C@H](OCCCCO)O1 | -18%
115 | CC1CCN(C(=S)c2ccc(-c3ccc(Cl)cc3Cl)o2)CC1 | 79µM*
116 | Cc1cc(NC(=O)NCC(F)(F)F)no1 | -6%
117 | O=C(COC(=O)c1ccc(S(=O)(=O)N2CCCC2)cc1)NCc1ccc(Cl)cc1 | 24%
118 | O=C(O)C(Cc1ccc(OS(=O)(=O)Cc2ccccc2)cc1)NS(=O)(=O)Cc1ccccc1 (centres undefined) | 18%
119 | CCOc1ccc(NC(=O)c2noc3c2CSc2ccccc2-3)cc1 | 1%
120 | Cc1ccc(-c2ccc(=O)n(Cc3c(F)cccc3Cl)n2)cc1 | -21%
121 | COc1ccccc1CNC(=O)c1ccc(-c2nc(CN3CCc4ccccc43)c(C)o2)cc1 | 9%
122 | COc1cc2cc(CN(Cc3nnnn3Cc3ccco3)C3CCCCC3)c(=O)[nH]c2cc1OC | -1%
123 | CCOC(=O)NC(=O)/C(C#N)=N/Nc1ccc(F)cc1 | -13%
124 | O=C1c2oc3ccccc3c(=O)c2C(c2cccc(Br)c2)N1c1ccccn1 (centres undefined) | 13%

Values by screen from the entries so far.
Compounds 121–124 in VDR inh read 9%, -1%, -13%, 13%

Screening data (PubChem)
